From PubChem
UCH37 DUB inh: blocks the human deubiquitinase UCH37. AID 588478. purified proteasome/UCH37, Ub-AMC cleavage fluorescence. Q9Y5K5. inhibition, % (no concentration beside the values). 330,000 tested, 0.33% active;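 active = mean of two replicates above 20%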;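 also: 0% = compound-free wells with enzyme and 100% = wells lacking proteasome; stock transfer was 100 nL into about 20 µL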
Target sequence (Q9Y5K5 whole entry, looked up): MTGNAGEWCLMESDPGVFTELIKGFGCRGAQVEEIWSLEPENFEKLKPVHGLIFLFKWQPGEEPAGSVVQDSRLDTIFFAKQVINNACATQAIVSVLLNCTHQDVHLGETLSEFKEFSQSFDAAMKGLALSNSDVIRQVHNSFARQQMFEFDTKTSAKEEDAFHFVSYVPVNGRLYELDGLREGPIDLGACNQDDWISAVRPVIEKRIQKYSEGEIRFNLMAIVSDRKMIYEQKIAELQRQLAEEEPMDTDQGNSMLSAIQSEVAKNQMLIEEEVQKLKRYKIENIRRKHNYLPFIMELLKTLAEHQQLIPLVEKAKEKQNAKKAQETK
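Reagent: Ub-AMC substrate; assay system: Proteasome-associated human UCH37 deubiquitinase; controls: no-proteasome and no-compound wells; read-out: % inhibition of Ub-AMC cleavage fluorescence; timing: 30 min preincubation with enzyme, 25 min cleavage at room temperature; signal: AMC fluorescence from Ub-AMC cleavage, excitation 355 nm, emission 460 nm; buffer or medium: Tris-HCl pH 7.4 plus ovalbumin, ATP-MgCl2, DTT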
RanGTP-Impb inh: disruptors of Ran-importin-beta complex formation – biochemical, FRET, CFP-Ran, YFP-importin-beta, homogeneous, primary screen. cell-free CFP-Ran/YFP-importin-beta FRET ratio. AID 2216. 300,000 tested, 1.1% active. inhibition, % (no concentration beside the values);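 active = most replicates above 15%; inconclusive = exactly half above 15%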;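 also: 0% = DMSO wells and 100% = Ran loaded with GDP instead of GTP; wells of about 40 µL received 100 nL stock; the first replicate is given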
Beta2AR agonist: agonists of human beta-2 adrenergic receptor inducing internalization. P07550. Am2.2-beta2AR cells, FAP receptor internalization, flow cytometry; reference of the scale not given here. response, % (concentration not given with the values). 340,000 tested, 0.43% active;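 active = response above a set limit, near 3 SD of response in nonfluorescent compounds, cut at about 42% in these data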;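 also: stock transfer was 100 nL into about 11 µL; a reference agonist was the positive control; negative values mostly stem from fluorescent compounds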
Target sequence (P07550 whole entry, looked up): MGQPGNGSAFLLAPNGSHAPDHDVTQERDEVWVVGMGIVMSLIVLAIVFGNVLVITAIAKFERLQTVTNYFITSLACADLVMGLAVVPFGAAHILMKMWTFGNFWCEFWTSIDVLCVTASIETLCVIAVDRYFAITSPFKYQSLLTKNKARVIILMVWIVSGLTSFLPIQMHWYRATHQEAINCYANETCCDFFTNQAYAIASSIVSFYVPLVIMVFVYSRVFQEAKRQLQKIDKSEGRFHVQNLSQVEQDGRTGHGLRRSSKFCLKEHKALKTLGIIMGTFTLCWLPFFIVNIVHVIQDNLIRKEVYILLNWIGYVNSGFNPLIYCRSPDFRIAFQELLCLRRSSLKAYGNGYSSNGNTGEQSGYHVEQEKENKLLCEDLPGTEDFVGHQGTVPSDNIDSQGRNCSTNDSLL
T cruzi repl: T. cruzi replication inhibition; T. cruzi beta-gal in NIH3T3, luminescence, 90 h; inhibition, % (test concentration not listed); 300,000 tested, 1.4% active;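 active = mean inhibition across valid replicates above about 55%, limit read from the data; inconclusive = mean below that limit but half or more replicates reach it; inactive = mean below it, under half of replicates reach it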;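 also: signal also drops with host cell toxicity which is not excluded here; 0% = plate median of DMSO wells and 100% = zero luminescence signal; higher percent means less beta-gal luminescence so fewer parasites; stock transfer was 50 nL into about 50 µL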
Beta cell apopt: blocks beta cell apoptosis | INS-1E cytokine-induced death, ATP luminescence, 48 h; percent of positive-control rescue, neutral wells zero | AID 435005 | protection from apoptosis, % (no concentration beside the values) | 300,000 tested, 0.8% active;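 active = all replicates at 75% or more, or half of them and the mean; inconclusive = half reach 75% but not the mean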;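 also: 0% = cytokine-treated negative control wells and 100% = positive control rescue; higher means more ATP so stronger rescue from cytokine killing; wells of about 40 µL received 100 nL stock; the first replicate is given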
LANA-H2A inh: blocks KSHV LANA binding to histone H2A/H2B; Q9QR71; cell-free LANA-H2A/H2B peptide, fluorescence polarization; inhibition, % (test concentration not listed); 320,000 tested, 0.6% active; in the data active = inhibition mostly above about 10%, no sharp cut-off; inactive = mostly below about 6.7%;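 also: stock transfer was 7.5 nL into about 10 µL; 0% = median of vehicle wells and 100% = median of positive control wells; one replicate is shown; the record names a cut of 25% in any replicate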
Calb FLC: C. albicans growth modulation with fluconazole; C. albicans CaCi-2 (fluconazole-resistant clinical isolate) + fluconazole, Alamar Blue growth, 48 h; growth inhibition, % (concentration not given with the values); 300,000 tested, 0.57% active;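 active = most replicates above 75%; inconclusive = exactly half above 75%; inactive = most below 75%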;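 also: all wells also contain fluconazole at 8 µg/ml as a sub-toxic cotreatment; 0% = median of DMSO wells and 100% = median of geldanamycin control wells; wells of about 8 µL received 7.5 nL stock; the first replicate is given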
Bfl-1 A1 inh: inhibitors of the anti-apoptotic protein A1, read as caspase activation; 330,000 tested, 0.066% active; caspase activation, % (no concentration beside the values); MEF A1-2A-BIM cells, Caspase-Glo 3/7 luminescence, 3 h; percent of clofoctol response, vehicle zero;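 active = over half of replicate activation scores above 10%, or exactly half above 10 with the replicate mean above 10; inconclusive = replicate mean below 10 yet half the replicates above 10; inactive = over half of replicates below 10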;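 also: wells of about 30 µL received 50 nL stock; many hits fall short of the cut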
An asterisk follows results filed as active; ? = inconclusive; . = no result given.

SMILES	UCH37 DUB inh	RanGTP-Impb inh	Beta2AR agonist	T cruzi repl	Beta cell apopt	LANA-H2A inh	Calb FLC	Bfl-1 A1 inh
CC(=O)Nc1ccc(OC(=O)N2CCCC2)cc1	5.6	0.5	-4	-12	.	-6.4	-9	0.9
COc1cc(C)nc(N2CCCC(C(=O)NC3CCC(C)CC3)C2)n1 (stereo unspecified)	1.3	5.2	.	-5	-1	0.8	6	-0.5
Cc1ccc(C(=O)Nc2nnc(C3=COCCO3)o2)cc1C	.	5.7	-2	10	.	3.8	13	45*
CS(=O)(=O)N(CC(=O)N1CCCC1)c1cc(Cl)c(Cl)cc1Cl	1.4	0.1	-12	0	0	-0.9	-13	0.9
Cc1csc(NC(=O)C(F)(F)F)n1	-1.5	1.0	6	-19	5	0.1	9	0.2
COc1ccc(/C=N/NC(=O)CCCOc2ccc(Cl)cc2Cl)cc1	.	4.9	-6	-8	-7	-5.2	-20	0.3
CCc1cc(=O)oc2c(C)c(OC(C)C(=O)NC3CC(C)(C)NC(C)(C)C3)ccc12 (stereo unspecified)	-23	0.4	-6	-1	-4	6.1	3	0.5
O=C1c2cccnc2C(Nc2ccc(Br)cc2Br)N1Cc1cccs1 (stereo unspecified)	-0.9	1.2	.	5	37	-2.4	0	0.3
N#CC1=C(C2CC2)CC(c2ccccc2)C(C#N)=C1N (stereo unspecified)	0.9	9.6	4	9	2	3.4	-3	0.5
COc1ccc(CNc2nc3nc(C)cc(C)n3n2)cc1	0.2	-0.7	-15	8	-2	2.5	-16	-0.3
O=C(Nc1ccccc1)c1ccc(Br)o1	1.0	0.9	-10	-2	-3	0.9	5	-7.1
COc1ccccc1N(CC(=O)NCC1CCCO1)C(=O)CNS(=O)(=O)c1ccccc1 (stereo unspecified)	3.6	2.5	-1	-1	2	0.8	1	-0.3
CN(Cc1ccc(CNC[C@H]2O[C@@H](n3cnc4c(N)ncnc43)[C@H](O)[C@@H]2O)o1)S(C)(=O)=O	0.5	.	-10	.	-10	1.3	.	-0.5
Cc1ccc(CN2CCSc3ccc(C(=O)NCC4CCCO4)cc32)cc1 (stereo unspecified)	-392	5.4	6	13	-1	-3.5	1	0.2
CS(=O)CCC(NS(=O)(=O)c1ccccc1)C(=O)O (stereo unspecified)	3.2	0.0	-5	-22	-1	-4.6	-17	0.3
O=C(NCc1ccc2c(c1)OCO2)C(=O)NCC1OCCCN1S(=O)(=O)c1cc(F)ccc1F (stereo unspecified)	3.9	1.1	0	17	0	3.8	-8	-0.3
CN(C)CCCC(C)(O)C(Cc1ccccc1)c1ccccc1 (stereo unspecified)	3.0	-0.5	2	2	-10	-1.6	6	0.0
Cn1c(CSCc2ccccc2)n[nH]c1=S	0.5	1.8	3	14	3	-1.2	6	0.0
Nc1ccc(S(=O)(=O)Nc2nc3ccccc3o2)cc1	2.5	3.0	-3	6	-8	2.5	14	0.7
CCc1ccc(-c2nc(CN3CCC(C(=O)N4CCN(c5ccccc5)CC4)CC3)c(C)o2)cc1	2.5	-0.3	37	41	12	1.3	?	-0.3
CCOC(=O)c1c(S(=O)(=O)N(C)Cc2ccco2)c(C)n(C)c1C	1.1	3.2	2	0	-1	1.4	-5	0.3
Cc1ccc(O)c(N/C=C/C(=O)c2ccc(F)cc2)c1	-1.8	6.6	3	-12	4	3.5	-22	-6.7
O=C(CN1CCCc2ccccc21)NCc1ccc2c(c1)OCO2	2.8	-4.4	6	7	1	8.0	-74	0.5
Cn1cc(S(=O)(=O)CC(=O)Nc2ccc3c(c2)OCO3)c2ccccc21	4.5	-1.6	-6	-12	.	2.5	6	0.3
Cc1cc(C(=O)NC2CC(C)(C)Cc3c2cnn3-c2ccc(F)cc2)no1 (stereo unspecified)	0.5	?	-1	8	-1	1.9	17	-0.4
O=C(O)CSC1=NC(=Nc2cccc(Cl)c2)C2(CCCCC2)N1c1ccccc1	3.9	-1.8	8	9	4	3.4	-5	0.3
N#Cc1cnc2ncnn2c1-c1ccccc1	1.7	?	8	-6	0	-0.3	20	-0.2
CCc1ccc(-c2cc(C)no2)cc1S(=O)(=O)NCCCN1CCN(c2ccccc2)CC1	3.1	3.3	-17	24	13	7.2	-2	1.5
Cc1ccc(CNc2nc3ccccc3s2)s1	2.4	-0.1	-3	.	-10	-3.2	-14	-7.4
CCn1nc(C(=O)NCC2COc3ccccc3O2)c2ccccc2c1=O (stereo unspecified)	0.9	.	-2	.	1	1.2	.	-0.4
COc1ccc(NC(=O)c2cc(S(=O)(=O)N3CCOCC3)cn2C)c(OC)c1	6.4	4.0	0	3	-3	2.2	1	1.3
CCCn1c(SCC(=O)N2CCCC2)nc2c1c(=O)n(C)c(=O)n2C	5.4	-2.3	4	7	-3	1.5	7	-0.7
COc1ccc(Br)cc1CN1CCN(C(=O)c2cccc(F)c2)CC1	2.0	3.1	2	9	0	-20	-8	0.5
CC1(c2cccc(Br)c2)NC(=O)N(CC(=O)Nc2ccc(F)cc2)C1=O (stereo unspecified)	1.6	-1.6	-4	-17	2	3.7	7	-0.4
O=C(CC1C(=O)NCCN1C(=S)Nc1ccccc1)Nc1ccc(F)cc1 (stereo unspecified)	4.6	0.3	1	-16	5	-0.5	-10	-0.1
Cc1ccc(S(=O)(=O)N2CCN(C(=O)COC(=O)COc3cccc4c3OC(C)(C)C4)CC2)cc1	2.0	-2.0	0	-15	-8	-3.6	-6	-0.3
Cc1ccc(Cn2c(C(C)Nc3nc(-c4ccc(Cl)cc4)cs3)nc3cc(C(=O)NCCCO)ccc32)cc1 (stereo unspecified)	0.3	6.5	2	45	12	1.6	-32	0.3
COc1ccccc1/C=N/NC(=O)c1cccc(NC(=O)c2ccccc2Cl)c1	.	-1.5	23	-16	4	1.9	3	0.1
Cc1ccc(C2C(=O)N(C3CCCC3)CC(=O)N2C2CCCCC2)cc1 (stereo unspecified)	0.6	-0.2	6	18	4	-1.9	-15	-0.1
c1nc2sc3c(c2c2nnnn12)CCCC3	-12	-2.2	-12	3	8	-0.6	6	0.3
CC(=O)Nc1ccc(S(=O)(=O)NC(CSc2ccc(C(=O)O)cc2[N+](=O)[O-])C(=O)O)cc1 (stereo unspecified)	3.3	-1.2	-6	0	-3	-0.2	4	0.0
CCOC(=O)Cn1nc(-c2ccc(C)cc2)ccc1=O	-7.2	?	4	-4	-6	-1.1	7	0.1
O=C(COc1ccccc1[N+](=O)[O-])OCC(=O)N1CCC(Cc2ccccc2)CC1	2.2	2.0	1	-5	-7	1.6	-3	-0.2
CC[n+]1c(/C=C/C=C/N(C(C)=O)c2ccccc2)sc2ccccc21	6.4	1.5	-4	29	13	-266	89*	-1.3
C=CCn1c(=O)c(C(=O)Nc2ccccc2O)c(O)c2ccccc21	-26	-2.7	0	-1	-4	-0.8	-8	1.2
CCn1c(C)c(/C=N/Nc2nc3ccccc3s2)c2ccccc21	.	4.9	3	69*	.	.	4	.
Cc1ccc(S(=O)(=O)N2CCCCC2)cc1C(=O)Nc1ccc(N2CCOCC2)cc1	0.9	2.8	-4	-40	9	-0.2	3	-1.7
O=C(c1ccc(S(=O)(=O)N2CCOCC2)cc1)N1CCN(c2ccccc2)CC1	1.7	1.0	10	-14	-1	3.7	-1	0.0
Cc1ccc(NC(=O)CN(C)CC(=O)Nc2ccc(F)c(F)c2F)c(Cl)c1	-0.5	-3.0	-4	-6	-10	3.1	23	0.0
COc1ccc(OC)c(CN(CCCN2CCOCC2)C(=O)Nc2ccccc2)c1	3.4	-1.8	4	-7	4	-4.9	5	-0.4
c1cncc(-c2noc(-c3ccco3)n2)c1	3.9	-1.0	3	-10	-5	-3.3	-8	-6.4
CCCCOC(=O)C1=C(C)Nc2nnnn2C1c1ccccc1Cl (stereo unspecified)	4.7	7.6	2	7	8	-4.9	-3	-0.1
Fc1ccc(F)c(C2=NNC(=NCC3CCCO3)SC2)c1 (stereo unspecified)	-0.3	?	0	-3	-10	6.3	-7	-0.6
CCOc1cccc2sc(N(CCCN(C)C)C(=O)c3ccc(S(=O)(=O)N(CC)Cc4ccccc4)cc3)nc12	1.1	0.9	25	20	6	-10	2	-0.8
COC(=O)Oc1ccc(/C=N/NC(=O)CSCc2ccc(Cl)cc2)cc1OC	.	-1.1	8	-1	-2	1.8	-12	1.1
O=C1N/C(=C\c2ccccc2)C(O)=C1C=NCc1ccccc1	-25	-0.5	-13	-14	-7	.	27	0.8
CNC(=O)N(O)C1N(/N=C/c2ccccc2OC)C(=S)SC1(C)C (stereo unspecified)	.	-4.2	-1	-5	-5	-1.4	32	0.2
CCCCC(CC)C(=O)Nc1ncc([N+](=O)[O-])s1 (stereo unspecified)	4.4	5.0	7	81*	22	2.9	-7	0.4
COCCn1c(C2CCCCC2)nc2sc3ccccc3c(=O)c2c1=O	7.2	9.1	-15	55*	12	4.6	-19	1.6
COc1ccc(-c2oc3ccc(-c4ccc5c(c4)OCO5)cc3c2C#CC2(O)CCCCC2)cc1	-46	2.7	8	28	.	-0.5	13	0.1

The last three entries of the part above come first, to join the parts:
SMILES	UCH37 DUB inh	RanGTP-Impb inh	Beta2AR agonist	T cruzi repl	Beta cell apopt	LANA-H2A inh	Calb FLC	Bfl-1 A1 inh
CCCCC(CC)C(=O)Nc1ncc([N+](=O)[O-])s1 (stereo unspecified)	4.4	5.0	7	81*	22	2.9	-7	0.4
COCCn1c(C2CCCCC2)nc2sc3ccccc3c(=O)c2c1=O	7.2	9.1	-15	55*	12	4.6	-19	1.6
COc1ccc(-c2oc3ccc(-c4ccc5c(c4)OCO5)cc3c2C#CC2(O)CCCCC2)cc1	-46	2.7	8	28	.	-0.5	13	0.1
CC(C)(C)NC(=O)CN(C(=O)CS(=O)CC(=O)Nc1ccc(F)cc1)c1ccccc1F (stereo unspecified)	0.9	1.1	0	0	-5	-0.9	6	-0.1
COc1ccccc1NC(=O)C(C)OC(=O)COc1cccc2c1OC(C)(C)C2 (stereo unspecified)	5.8	0.7	-1	-2	.	-1.3	2	-0.8
Cc1ccc(NC(=O)CCCCCCCCCCC2COCCO2)c(C)c1 (stereo unspecified)	-1.2	?	0	12	4	-10	5	-0.4
Cn1nc(-c2ccccc2)cc1NC(=O)Nc1ccc(C(C)(C)C)cc1	3.1	-0.3	15	22	5	-0.8	1	0.7
Nc1ccc(S(=O)(=O)N2CCc3ccccc32)cc1	-1.7	-0.9	6	4	-5	2.4	5	0.2
CCN(CC)c1ccc(C(=O)Nc2cccc(F)c2)cc1	-3.7	12	0	-8	9	-6.1	-3	-0.4
C[C@H](CO)N1C[C@H](C)[C@@H](CN(C)S(=O)(=O)c2cccs2)Oc2ccc(NC(=O)NC3CCCCC3)cc2C1=O	.	.	-5	.	5	1.6	.	0.2
